Cruzain Triton: qHTS Assay for Promiscuous and Specific Inhibitors of Cruzain (with detergent); purified cruzain, Z-FR-AMC fluorescence, 0.01% Triton; AID 1478, 2009; Potency, µM, inactives show max response, negative = inhibition, most hits filed as inhibitors; hit rate 0.43% among 200,000; Cruzipain (Trypanosoma cruzi), P25779;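 also: plate controls were neutral wells for no effect and buffer without enzyme for full effect; nearly all actives have a fitted effect of over 40% in size; top concentration of the series not given in the record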
Target sequence (P25779 123-467 limits assumed): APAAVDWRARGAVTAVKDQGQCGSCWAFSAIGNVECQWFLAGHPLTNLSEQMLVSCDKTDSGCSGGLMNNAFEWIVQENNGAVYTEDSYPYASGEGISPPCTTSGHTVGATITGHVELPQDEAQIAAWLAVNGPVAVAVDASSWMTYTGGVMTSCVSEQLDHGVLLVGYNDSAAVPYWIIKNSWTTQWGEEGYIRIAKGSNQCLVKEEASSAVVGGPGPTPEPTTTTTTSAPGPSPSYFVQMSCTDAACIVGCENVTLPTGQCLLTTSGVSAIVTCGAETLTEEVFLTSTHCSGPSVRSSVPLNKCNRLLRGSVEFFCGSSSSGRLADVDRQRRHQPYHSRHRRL
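Sodium acetate buffer (100 mM, pH 5.5) containing 5 mM DTT and 0.01% Triton X-100 hosted 1.5 nM cruzain and test compound for 15 min at room temperature. Cleavage of 2 uM Z-FR-AMC was then tracked by fluorescence.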
Marburg entry inh: qHTS for inhibitors of binding or entry into cells for Marburg Virus; Marburg virus pseudotyped entry inhibition, cell reporter; control for the full effect not named in the record; about a third of the inactives were read at about 46 µM; Potency, µM (top dose mostly 37.8 µM), inactives show top-dose activity change, negative = inhibition, hits mostly inhibitors; hit rate 1.8% among 300,000; AID 540276, 2011; active = well fitted inhibition curve with a large enough effect; inconclusive = small, poorly fitted or top-dose-only effect, or effect the other way; inactive = flat fitted curve, though single readings scatter; tested in HEK293 cells; about a fifth of its hits are not listed in these tables; also: % is scaled to controls: 0 for no effect and ±100 for the full control effect; luciferase read-out
Cruzain noTriton: qHTS Assay for Promiscuous and Specific Inhibitors of Cruzain (without detergent). purified cruzain, Z-FR-AMC fluorescence, no detergent. Potency, µM, for inactives: max response, negative = inhibition, hits mostly inhibitors. Cruzipain (Trypanosoma cruzi), P25779. hit rate 2.3% among 200,000. AID 1476, 2009;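 also: plate controls were enzyme without inhibitor for no effect and buffer without enzyme for full effect; nearly all actives have a fitted effect of over 40% in size; top concentration of the series not given in the record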
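Purified cruzain at 1.5 nM, pre-incubated 15 min with compound at room temperature in 100 mM sodium acetate pH 5.5, 5 mM DTT, 0.00005% Triton X-100. Reaction started with 2 uM Z-FR-AMC; AMC fluorescence increase over 60 s gives rate.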
SARS PLP yeast: qHTS of Yeast-based Assay for SARS-CoV PLP. S. cerevisiae expressing SARS-CoV PLpro, growth rescue; control for the full effect not named in the record. Potency, µM (series often up to 32.9 µM), for the others: at the top dose activity, positive = growth rescue. hit rate 0.19% among 330,000; active means well fitted rising curve with a large enough effect; inconclusive means small, poorly fitted or top-dose-only effect; inactive means no such curve, though single readings can be large or run the other way; also: 0% is about no effect; nearly all actives have a fitted effect of over 55% in size; growth read by luminescence after 48 h
NS1 function inh: qHTS Assay for Inhibitors of Influenza NS1 Protein Function | S. cerevisiae slowed by influenza A NS1, growth recovery by OD600 | Potency, µM (series often up to 46.1 µM), for inactives: top-dose activity, positive = more growth | hit rate 0.4% among 270,000; active means well fitted rising curve with a large enough effect; inconclusive means small, poorly fitted or top-dose-only effect; inactive means no such curve, though single readings can be large or run the other way; also: nearly all actives have a fitted effect of over 50% in size
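Recovery from NS1-induced slow growth read by OD600 in budding yeast switched to galactose assay medium (pH 6.0, -URA) at 1:100 dilution. Compound 23 nl per well; the matching strain lacking NS1 serves as control.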
Lassa entry inh: qHTS for Inhibitors of binding or entry into cells for Lassa Virus; Lassa virus pseudotype entry inhibition, cell reporter; control for the full effect not named in the record; Potency, µM (highest dose often 37.9 µM), without a hit: at the top dose activity change, negative = inhibition, actives largely listed as inhibitors; hit rate 1.2% among 300,000; AID 540256, 2011; active means well fitted inhibition curve with a large enough effect; inconclusive means small, poorly fitted or top-dose-only effect, or effect the other way; inactive means flat fitted curve, though single readings scatter; tested in HEK293 cells; also: % is scaled to controls: 0 for no effect and ±100 for the full control effect; nearly all actives have a fitted effect of over 50% in size; luciferase read-out
Starred values were filed as active, the others as inactive; ? = inconclusive; nt = no result given; & = joins results of further samples; [ ] = dose if it differs, or a comment. Unless noted, calls follow the shape of the dose curve; as a rule, active = well fitted curve in the direction sought with a large enough effect; inconclusive = small, poorly fitted or top-dose-only effect, or another doubt; inactive = no such curve, though single readings can be large; an effect the other way counts as inactive or inconclusive. Potency is read from the fitted curve at half-maximal effect.

SMILES	Cruzain Triton	Marburg entry inh	Cruzain noTriton	SARS PLP yeast	NS1 function inh	Lassa entry inh
Cc1c(C(=O)N(C)C)sc2c1c(=O)n(-c1ccc(Cl)c(Cl)c1)c(=O)n2CC(=O)Nc1ccc(Br)cc1F	2.3%	nt	15.6%	nt	nt	2.8%[46.1 µM]
COC(=O)C/C=C/[C@@H](C)[C@H](NC(=O)OCC(Cl)(Cl)Cl)c1cccc(OC)c1	0.4%	-7.5%[14.2 µM]	6.4%	nt	nt	nt
COCC1=Cc2cc3c(cc2C(C(C(=O)OC)C(=O)OC)N1C(=O)OC)OCO3 (stereo not drawn)	1.1%	-18.3%&-18.3%&7.4%&-18.3%[14.2 µM]	-4.1%	nt	nt	nt
c1ccc(-c2nc(-c3ccccc3)c(NC3CCCCC3)o2)cc1	1.8%	?	-7.0%	nt	nt	nt
COc1cc(=O)n(C)c2c(OC[C@@H](O)C(C)(C)O)cccc12	-3.9%	35.5%&35.5%	-5.8%	nt	nt	nt
C/C(=C\C[Si](C)(C)C)CCC=O	4.3%	-25.1%[14.2 µM]	?	nt	nt	nt
COc1cccc([C@@H]2Oc3ccc(Br)cc3[C@H](O)[C@H]2O)c1	4.5%	?	-20.0%	nt	nt	nt
FC(F)(F)c1cc(NC(=S)Nc2ccc3cc4ccccc4cc3c2)cc(C(F)(F)F)c1	3.2%	?	?	nt	nt	nt
COc1cccc([C@@H]2Oc3ccc(Br)cc3C(=O)[C@H]2OC(=O)Nc2cc(OC)c(OC)c(OC)c2)c1	-4.9%	5.2%[14.2 µM]	-4.2%	nt	nt	nt
COC(=O)[C@@H]1C=C[C@H](C)[C@H](CCOc2ccccc2)O1	0.6%	-7.7%[14.2 µM]	-1.9%	nt	nt	nt
C=CCOC(=O)N[C@H](/C(C(=O)OC)=C(\C)NCc1ccccc1)c1cccc(F)c1	3.9%	?	-7.5%	nt	nt	nt
CC(C)(C)Nc1oc(-c2ccccc2)nc1-c1ccccc1	4.4%	8.5%&8.5%[14.2 µM]	-3.1%	nt	nt	nt
C=CCOC(=O)N[C@@H](c1cccs1)C(C(C)=O)C(C)=O	1.2%	?	-2.7%	nt	nt	nt
COc1cc(CCN2C(=O)N[C@@H](c3ccccc3)C(C(C)=O)=C2C)cc(OC)c1OC	-2.0%	6.3%&6.3%[14.2 µM]	8.8%	nt	nt	nt
COC(=O)CCCC1=CC2=CC(=O)C(C)(O)C(=O)C2=CO1 (stereo not drawn)	3.2%	-16.5%&-16.5%[14.2 µM]	3.1%	nt	nt	nt
COC(=O)C1(C(=O)OC)CC(CO)C(=O)[C@H]1c1ccccc1 (stereo partly drawn)	2.1%&9.4%	-8.4%&-8.4%&-8.4%[14.2 µM]	-8.8%&-3.6%	nt	nt	nt
COCOc1cc(OC)ccc1C(=O)/C=C/c1ccc([N+](=O)[O-])cc1	1.2%	-18.9%[14.2 µM]	-19.6%	nt	nt	nt
COc1ccc2c(c1)O[C@@H](c1cccc(C(F)(F)F)c1)[C@H](OC(=O)NC1CCCC1)C2=O	-3.6%	?	-3.8%	nt	nt	nt
COc1ccc2c(c1)O[C@@H](c1ccc3c(c1)OCO3)[C@H](OC(=O)N[C@H](C)C1CCCCC1)C2=O	3.7%	8.7%&8.7%[14.2 µM]	0.8%	nt	nt	nt
CCOC(=O)/C=C/CCC/C=C/C(=O)c1ccccc1	-21.2%	?	-10.3%	nt	nt	nt
O=C1CCC=C1C(O)c1ccccc1 (stereo not drawn)	4.0%&-4.0%	?	-17.8%&12.2%	nt	nt	nt
N[C@H](Cc1cc(I)c(Oc2cc(I)c(O)c(I)c2)c(I)c1)C(=O)O	-3.3%	?	-25.5%	nt	nt	nt
COC(=O)C1(C)C=C(Nc2ccc(OC)cc2)C(=O)N1c1ccc(OC)cc1 (stereo not drawn)	2.0%	?	9.0%	nt	nt	nt
C[C@@H]1C[C@](C)(C(=O)c2ccco2)C=C1c1ccco1	0.6%	5.5%[14.2 µM]	-3.1%	nt	nt	nt
COC(=O)[C@H](COC(C)(C)C)NC(=O)O[C@@H]1C(=O)c2cc(Br)ccc2O[C@H]1c1ccc2c(c1)OCO2	0.8%	?	-8.3%	nt	nt	nt
COc1ccc2c(c1)C(=O)[C@H](OC(=O)Nc1cc(OC)c(OC)c(OC)c1)[C@@H](c1ccc(OC)c(Br)c1)O2	-0.9%	?	-0.9%	nt	nt	nt
Nc1cnn([C@@H]2O[C@H](CO)[C@@H](O)[C@H]2O)c(=O)n1	5.0%	?	-2.3%	nt	nt	nt
COc1cccc([C@@H]2Oc3ccc(Br)cc3C(=O)[C@H]2OC(=O)Nc2ccc(OC(F)F)cc2)c1	-0.2%	?	-11.3%	nt	nt	nt
COc1ccc2c(c1OC)C(=O)O[C@H]2[C@H]1c2cc3c(cc2CCN1C)OCO3	-0.2%	21.8%	-14.4%	nt	nt	nt
CCOC(=O)CNC(=O)O[C@@H]1C(=O)c2cc(OC)ccc2O[C@H]1c1cccc(OC)c1	3.5%	-25.6%&-25.6%&-25.6%[14.2 µM]	-0.5%	nt	nt	nt
C=CCOC(=O)NC(c1ccc(F)c(F)c1)S(=O)(=O)c1ccc(Cl)cc1 (stereo not drawn)	3.7%	1.2%&1.2%[14.2 µM]	-1.9%	nt	nt	nt
Nc1ccccc1C(=O)/C=C/c1ccccc1	1.9%	?	-2.7%	nt	nt	nt
CC(=O)/C(C)=N\O	2.8%	?	1.7%	nt	nt	nt
COC(=O)NC(CCc1ccccc1)C(C(C)=O)C(=O)OC (stereo not drawn)	-1.6%	-23.9%&-23.9%[14.2 µM]	-3.1%	nt	nt	nt
CCC(=O)OC1(C)C(=O)C=C2C=C(CCCCNC(=O)OC(C)(C)C)OC=C2C1=O (stereo not drawn)	-3.7%	?	4.8%	nt	nt	nt
COC(=O)C/C=C/[C@@H](C)[C@H](O)c1ccccc1Br	-9.0%	-28.6%[14.2 µM]	-2.6%	nt	nt	nt
COC(=O)N1C(C2CC2)=Cc2ccccc2C1CC(C)=O (stereo not drawn)	2.5%	?	-6.1%	nt	nt	nt
C=CCOC(=O)N[C@@H](CCc1ccccc1)C(C(C)=O)C(C)=O	3.9%	-15.7%&-15.7%[14.2 µM]	0.0%	nt	nt	nt
O=C1C=CC2(OCCCO2)C(Br)=C1CO	1.8%	-40.4%&-40.4%[14.2 µM]	7.6%	nt	nt	nt
CC(Nc1oc(-c2ccccc2)nc1-c1ccccc1)c1ccccc1 (stereo not drawn)	-1.0%&6.1%	3.1%&3.1%&38.6%&3.1%[14.2 µM]	10.7%&5.8%	nt	nt	nt
COc1ccc(C(O)C2=CCCC2=O)cc1 (stereo not drawn)	-0.3%&4.4%	6.3%&6.3%&6.3%[14.2 µM]	-15.5%&-3.8%	nt	nt	nt
C=CCOC(=O)N[C@H](/C(C(=O)OC)=C(\C)NCc1ccccc1)c1ccc(C)cc1	3.5%	?	-5.3%	nt	nt	nt
COC(=O)c1nnc(SC)nc1C(=O)OC	1.1%	-5.3%&-5.3%[14.2 µM]	2.7%	nt	nt	nt
COc1ccc2c(c1)C(=O)[C@H](OC(=O)Nc1ccc(OC(F)F)cc1)[C@@H](c1ccc(OC)c(Br)c1)O2	-3.6%	4.2%&4.2%[14.2 µM]	-8.6%	nt	nt	nt
COC(=O)C1(C(=O)OC)Cc2conc2[C@H]1c1ccccc1	-0.1%&4.0%&4.9%	-10.3%&-10.3%&-10.3%&-10.3%[14.2 µM]	-5.9%&-6.0%&0.7%	nt	nt	nt
COC(=O)C12CC3=CCC4C(=O)N(c5ccccc5)C(=O)C4C3Cc3ccccc3[C@@H]1CNC2=O (stereo partly drawn)	7.2%	5.1%&5.1%[14.2 µM]	-6.6%	nt	nt	nt
C=CCOC(=O)N[C@H](/C(C(=O)OC)=C(\C)NCc1ccccc1)c1ccc2c(c1)OCO2	4.8%	?	-2.0%	nt	nt	nt
COC(=O)NC(c1ccccc1)c1c[nH]c2ccc(OC)cc12 (stereo not drawn)	2.0%	0.0%&0.0%[14.2 µM]	-11.7%	nt	nt	nt
CCCCC1=CC2=CC(=O)C(C)(O)C(=O)C2=CO1 (stereo not drawn)	2.7%	?	15.6%	nt	nt	nt
COc1ccc2c(c1)C(=O)[C@H](OC(=O)N[C@H]1CCCc3ccccc31)[C@@H](c1ccc(OC)c(Br)c1)O2	-1.8%	-25.9%&-25.9%[14.2 µM]	?	nt	nt	nt
COc1ccc(-c2nc(-c3ccccc3)oc2Nc2ccccc2C)cc1	-1.2%&1.0%	?	-12.7%&-1.6%	nt	nt	nt
COc1ccc([C@]23Cc4ccccc4C(O2)c2c(c4ccc(OC)cc4oc2=O)O3)cc1	nt	-9.6%[14.2 µM]	nt	?	-5.2%	nt
CC(C)(C)N1CCC1C(N)=O (stereo not drawn)	nt	-0.7%	nt	-0.7%	3.9%	nt
CCCC[C@]12Cc3ccccc3C(O1)c1c(cc(-c3ccccc3)oc1=O)O2	nt	?	nt	-17.3%[6.58 µM]	-66.8%	nt
COc1cc2c(cc1OC)[C@@H]1O[C@](CCCCN3C(=O)c4ccccc4C3=O)(C2)Oc2cc(C)n(-c3ccccc3)c(=O)c21	nt	7.2%&7.2%[14.2 µM]	nt	4.6%[6.58 µM]	23.7%	nt
CCCCNC(=O)Oc1c(Br)cc2sc(=O)oc2c1Br	nt	6.9%	nt	?	-72.1%	nt
CC(C)(C#CCCCCC#CC(C)(C)[N+](C)(C)C)[N+](C)(C)C	nt	-6.1%	nt	0.0%	-0.7%	nt
COc1cc2c(cc1OC)C1O[C@](CCCCN3C(=O)c4ccccc4C3=O)(C2)OC2=C1C(=O)CCC2	nt	?	nt	-4.6%[6.58 µM]	-4.8%	nt
CCCCC1=CC2=C(c3ccco3)C(=O)C(C)(OC(=O)c3ccc(OC)cc3)C(=O)C2=CN1Cc1ccc(OC)cc1 (stereo not drawn)	nt	26.7%&26.7%&26.7%[14.2 µM]	nt	-0.8%	-4.6%	nt
Cc1ccc(C(=O)NC2=NCCS2)cc1	nt	-1.1%	nt	-2.0%	2.0%	nt
Carrying on.
SMILES	Cruzain Triton	Marburg entry inh	Cruzain noTriton	SARS PLP yeast	NS1 function inh	Lassa entry inh
C[C@H]1CC[C@H]2C(=O)O[C@H](COc3ccc(C(C)(C)C)cc3)CN2[C@H]1c1ccc(Br)cc1	nt	-11.8%[14.2 µM]	nt	nt	nt	?
CCN1C(=NCCCCO)N[C@@H](CCc2ccccc2)[C@H](C(=O)OC)[C@H]1C	nt	9.2%[14.2 µM]	nt	nt	nt	?
CCOC(=O)CN1C(=O)NC(CCc2ccccc2)C(C(=O)OC)=C1C (stereo not drawn)	nt	-23.0%[14.2 µM]	nt	nt	nt	?
COC(=O)C1=C(C)NC(C)=C(C(=O)OC(C)(C)CN(C)CCC(c2ccccc2)c2ccccc2)C1c1cccc([N+](=O)[O-])c1 (stereo not drawn)	nt	?	nt	nt	nt	8.2µM*

This is a subset; rates above refer to the full screens.
